# Screens as filed in PubChem.
# UTI89 phage lysis: inhibition of K1F phage lysis, E. coli UTI89, bacterial capsule biogenesis inhibitors, alamar blue (AID 488966); actives 0.02% (n = 340,000); inhibition, % at 100 µM, or IC50 in µM where a hit was titrated; E. coli UTI89 K1F phage lysis, alamar blue, 2 h; higher % means a stronger effect;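 active means phage lysis inhibition, versus mean bacterial control, above a set limit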;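 further: capsule biogenesis inhibitors block K1F phage lysis so surviving cells raise fluorescence; higher fluorescence means more inhibition of phage lysis; actives were called in the ten point dose series up to 300 µM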
# ER stress rescue: protection against thapsigargin-triggered cell killing – 384-well, CSM14.1, ATP luminescence, primary screen (AID 1222) | CSM14.1 thapsigargin-induced death rescue, ATP luminescence; higher % means a stronger effect | one-dose cellular ATP content (survival), % at 20 µM; EC50 in µM for titrated hits | 190,000 tested, under 10 active;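 active means EC50 below 50 µM in the dose-response confirmation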;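 further: death triggered by thapsigargin at about 15 µM added after 2 h compound pretreatment; cell ATP read after overnight thapsigargin exposure of roughly 18 to 22 hours; normalized against plate controls of thapsigargin alone and 5% DMSO vehicle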
# Dynein cargo inh: dynein cargo transport inhibition | 3617.4 mouse cells, GR-EGFP nuclear translocation imaging; test concentration mostly 20 µM; stimulated with dexamethasone, 1 µM; hits give low values | z-score, hits read low | actives 0.47% (n = 220,000) | AID 1381;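 active means plate z-score of nuclear minus cytoplasmic receptor signal below a set negative limit, without overly bright fluorescence or cell loss, cut at about -3.5 in these data, passing the limit was not always enough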;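 further: z-score of nuclear minus cytoplasmic ring GR-EGFP intensity difference per well; some compounds called inactive have numbers as strong as hits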
#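 medium = tetracycline-free induction medium containing charcoal-stripped FBS | also added = 1.0 µM final dexamethasone stimulus | schedule = 48 h induction, 1 h compound, 30 min dex at 37 °C | technique = fixed, Hoechst-stained cells imaged at 10x for EGFP | measure = GR-EGFP nuclear translocation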
# MT stabilizer: microtubule stabilizers in HeLa cells; AID 2205; actives 0.83% (n = 200,000); % tubulin-high responders, % at 10 µM; HeLa tubulin immunostaining HCS, 24 h; share of cells brighter than vehicle mean+2SD;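 active means plate Z-score above 3 for both tubulin-high and condensed-nucleus cell shares, with cell loss under 80%, at 10 µM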;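 further: anti alpha tubulin signal scored within the nucleus-defined area of each cell; some results filed as inactive read as strong as hits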
# Autophagy HCS: autophagy modulation, high-content screen; MEF GFP-LC3 puncta imaging; test concentration mostly 10 µM; calls only at 10 µM (by protocol); actives 0.98% (n = 190,000);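 active means percentage of spot-positive cells more than 3 SD above its plate mean, without a fluorescence outlier flag or 80% toxicity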;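 further: spot-positive cell cutoff set from DMSO-treated cells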
# M17LAP inhibition: P. falciparum M17LAP inhibitors, primary screen, biochemical, fluorogenic H-Leu-NHMec substrate, 1536-well (AID 1619); recombinant M17LAP, H-Leu-NHMec fluorogenic kinetic assay; higher % means a stronger effect; one-dose inhibition, % at 30 µM; IC50 in µM for titrated hits; actives 0.38% (n = 220,000);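 active means compound inhibiting the enzyme by more than half at any dose during confirmatory dose-response retesting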;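 further: plate controls were full reaction with DMSO carrier for no effect and no enzyme background for full effect; strong numbers were not always called active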
# M1AAP inhibition: malaria alanyl aminopeptidase activity blockers – biochemical, fluorogenic H-Leu-NHMec substrate, 1536-well (AID 1445); recombinant M1AAP, H-Leu-NHMec fluorogenic kinetic assay; higher % means a stronger effect; inhibition, % at 30 µM; hits with a dose series show IC50 in µM; actives 0.42% (n = 220,000);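 active means primary inhibition above the hit cutoff, then over 50% inhibition at one or more dose response concentrations, cut at about 23% in these data, passing the limit was not always enough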;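 further: plate controls were DMSO full reaction for no effect and no enzyme background for full effect; strong numbers were not always called active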
# Insulin prom up: MIN6 insulin promoter up-regulation; MIN6 insulin promoter-GFP reporter, high-content imaging; hits give high values; z-score at 5 µM; actives 0.3% (n = 190,000); AID 1625;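 active means z-score above 3 at 5 µM with at least 500 cells counted in the well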
# Dynein cargo inh cytoplasmic EGFP: second read-out of Dynein cargo inh, no call of its own (marks repeat the call); z-score; measured here: cytoplasmic GR-EGFP intensity; hits give high values
# Dynein cargo inh nuclear GR-EGFP: further read-out of Dynein cargo inh, marked with its call; z-score; measured here: nuclear GR-EGFP intensity;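 lower value marks the stronger effect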
# Dynein cargo inh cell count: second read-out of Dynein cargo inh, no call of its own (marks repeat the call); z-score; measured here: cell count per field
# Insulin prom up cell count: second read-out of Insulin prom up, no call of its own (marks repeat the call); cell count; measured here: cytotoxicity, nuclei count;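 total cells summed across four imaged fields per well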
# MT stabilizer Hoechst-high %: further read-out of MT stabilizer, marked with its call; % Hoechst-high responders; measured here: nuclear condensation Hoechst responders;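 share of cells brighter than vehicle mean plus two SD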
# MT stabilizer cytotoxicity %: recorded beside MT stabilizer, whose call it bears; toxicity, %; measured here: cytotoxicity by cell density;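 0% = mean cell density of plate MIN control wells and 100% = no cells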
# Autophagy HCS cell loss 18 h: second read-out of Autophagy HCS, no call of its own (marks repeat the call); toxicity, %; measured here: cell loss, nuclei count;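 cell loss after 18 h compound exposure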
# * marks the source's active call; other numbers are inactive results; i = inactive. These rows are one share of the data (hit frequency here may not be typical).
# Values in the order: Insulin prom up	Dynein cargo inh nuclear GR-EGFP	ER stress rescue	UTI89 phage lysis	M1AAP inhibition	Dynein cargo inh cell count	Dynein cargo inh cytoplasmic EGFP	Autophagy HCS	Dynein cargo inh	MT stabilizer	Insulin prom up cell count	MT stabilizer cytotoxicity %	M17LAP inhibition	Autophagy HCS cell loss 18 h	MT stabilizer Hoechst-high %
CCCC(=O)N(c1ccc(F)cc1)C1C=CS(=O)(=O)C1 (stereo not drawn)
  0.53	-0.014	-2.7%	3.1%	7%	-0.15	-0.25	i	-0.096	4.5	1362	7.3	9%	12	3.9
COCCNC(=O)COC(=O)c1nsc(Cl)c1Cl
  -0.17	-0.39	2.4%	-0.1%	-1%	0.18	-0.19	i	-0.56	1.7	1399	6.4	-6%	1	1.0
CCCOc1ccc(-c2nc(OC)c3ccccc3n2)cc1
  0.48	-0.73	-1.5%	0.3%	7%	-0.27	-0.25	i	-0.18	2.4	1573	1.9	-10%	-4	2.1
COc1ccc(NC(=O)CN2C(=O)c3cccc4cccc2c34)c(OC)c1
  -0.08	-0.95	-0.2%	0.5%	10%	0.1	0.1	i	-0.77	2.6	1542	2.9	12%	0	2.0
Cc1cc2ncn(C3CC(=O)N(C)C3=O)c2cc1C (stereo not drawn)
  -0.19	0.04	-0.5%	0.1%	6%	-0.13	-0.38	i	-0.22	3.2	1412	4.8	4%	-2	2.2
Cc1nnnn1-c1cccc(C(=O)O)c1
  -0.63	0.9	-2.6%	-1.3%	1%	-0.37	-0.062	i	1.4	1.8	914	3.1	-2%	-9	1.7
C=CCn1c(-c2ccc(Cl)cc2)ccc(C#N)c1=O
  -0.04	-0.062	2.8%	-0.2%	0%	-0.17	-0.25	i	0.8	4.3	1630	9.3	7%	-5	1.5
O=C(CNS(=O)(=O)c1ccc(Br)cc1)N1CCOCC1
  0.73	0.25	-0.8%	-0.1%	-1%	0.13	-0.059	i	0.19	3.2	1541	5.8	12%	-6	2.4
Cc1ccc(-c2nc3ccccc3[nH]2)cc1NC(=O)c1ccc2c(c1)OCO2
  -0.95	0.058	-0.7%	3.7%	-3%	1.1	0.19	i	-1.3	3.3	1220	8.2	-4%	-27	2.1
N/C(Cc1ccc([N+](=O)[O-])cc1)=N\OC(=O)COc1cccc2ccccc12
  -0.47	0.4	-1.7%	2.8%	6%	0.21	-0.18	i	-0.57	2.0	1547	1.0	-3%	-10	1.8
COc1ccc(S(=O)(=O)N(C)CC(=O)NCc2ccco2)cc1
  0.76	-0.53	1.2%	1.3%	1%	-0.82	-0.022	i	0.71	2.2	1309	0.3	6%	5	1.2
COc1cc2[nH]c(=O)n(CCC(=O)N3CCC(N4CCCCC4)CC3)c(=O)c2cc1OC
  0.53	0.24	-1.2%	0.5%	2%	1.1	-0.22	i	-0.33	3.3	1572	9.5	8%	-23	1.7
COc1ccc(OCCSc2nnnn2C2CCCCC2)cc1
  -1.3	0.061	-0.5%	0.8%	0%	0.085	-0.3	i	-0.019	5.1	871	8.3	-2%	8	3.2
CC(=O)c1cccc(NC(=S)NC(=O)CC(C)(C)C)c1
  -0.49	-0.12	3.0%	4.9%	15%	0.68	-0.2	i	-0.065	1.8	1706	4.5	0%	1	1.6
COC(=O)c1ccc(-n2cncn2)c(F)c1
  -0.14	-0.59	4.0%	0.5%	-2%	-1	-0.16	i	-0.77	3.1	1480	5.9	4%	-32	2.1
CN(C)C(=O)COn1c(SCC(=O)N(C)C)nc2ccccc2c1=O
  -0.39	0.8	-0.7%	0.4%	3%	-0.79	-0.18	i	0.66	4.5	1662	4.7	14%	12	1.6
O=C(NC(Cc1c[nH]c2ccccc12)c1nnc2n1CCCCC2)c1cccs1 (stereo not drawn)
  -0.32	0.37	2.7%	1.5%	2%	1.3	-0.27	i	0.57	3.4	1193	5.0	6%	-14	2.2
O=C(CN1C(=O)C2C3C=CC(C3)C2C1=O)NC1CCCc2ccccc21 (stereo not drawn)
  0.39	-0.26	1.9%	-1.2%	1%	0.47	-0.08	i	-0.58	5.7	1323	3.5	6%	-15	3.3
COc1cc2c(cc1NC(=O)Nc1ccccc1)oc1ccccc12
  -0.33	0.45	-4.2%	5.8%	3%	-1	-0.15	i	0.82	2.2	1575	11	9%	6	2.3

# Retrieved by structure from the list above:
# Values in the order: Insulin prom up	Dynein cargo inh nuclear GR-EGFP	ER stress rescue	UTI89 phage lysis	M1AAP inhibition	Dynein cargo inh cell count	Dynein cargo inh cytoplasmic EGFP	Autophagy HCS	Dynein cargo inh	MT stabilizer	Insulin prom up cell count	MT stabilizer cytotoxicity %	M17LAP inhibition	Autophagy HCS cell loss 18 h	MT stabilizer Hoechst-high %
Cc1ccc(-c2nc3ccccc3[nH]2)cc1NC(=O)c1ccc2c(c1)OCO2
  -0.95	0.058	-0.7%	3.7%	-3%	1.1	0.19	i	-1.3	3.3	1220	8.2	-4%	-27	2.1
COc1ccc(S(=O)(=O)N(C)CC(=O)NCc2ccco2)cc1
  0.76	-0.53	1.2%	1.3%	1%	-0.82	-0.022	i	0.71	2.2	1309	0.3	6%	5	1.2

# Record cards, as listed above. Order of screens: Insulin prom up | Dynein cargo inh nuclear GR-EGFP | ER stress rescue | UTI89 phage lysis | M1AAP inhibition | Dynein cargo inh cell count | Dynein cargo inh cytoplasmic EGFP | Autophagy HCS | Dynein cargo inh | MT stabilizer | Insulin prom up cell count | MT stabilizer cytotoxicity % | M17LAP inhibition | Autophagy HCS cell loss 18 h | MT stabilizer Hoechst-high %
# CC(=O)c1cccc(NC(=S)NC(=O)CC(C)(C)C)c1 reads -0.49 | -0.12 | 3.0% | 4.9% | 15% | 0.68 | -0.2 | i | -0.065 | 1.8 | 1706 | 4.5 | 0% | 1 | 1.6
# C=CCn1c(-c2ccc(Cl)cc2)ccc(C#N)c1=O reads -0.04 | -0.062 | 2.8% | -0.2% | 0% | -0.17 | -0.25 | i | 0.8 | 4.3 | 1630 | 9.3 | 7% | -5 | 1.5

# A draw from above in order of molecular weight, rising:
# Values in the order: Insulin prom up	Dynein cargo inh nuclear GR-EGFP	ER stress rescue	UTI89 phage lysis	M1AAP inhibition	Dynein cargo inh cell count	Dynein cargo inh cytoplasmic EGFP	Autophagy HCS	Dynein cargo inh	MT stabilizer	Insulin prom up cell count	MT stabilizer cytotoxicity %	M17LAP inhibition	Autophagy HCS cell loss 18 h	MT stabilizer Hoechst-high %
Cc1cc2ncn(C3CC(=O)N(C)C3=O)c2cc1C (stereo not drawn)
  -0.19	0.04	-0.5%	0.1%	6%	-0.13	-0.38	i	-0.22	3.2	1412	4.8	4%	-2	2.2
C=CCn1c(-c2ccc(Cl)cc2)ccc(C#N)c1=O
  -0.04	-0.062	2.8%	-0.2%	0%	-0.17	-0.25	i	0.8	4.3	1630	9.3	7%	-5	1.5
COCCNC(=O)COC(=O)c1nsc(Cl)c1Cl
  -0.17	-0.39	2.4%	-0.1%	-1%	0.18	-0.19	i	-0.56	1.7	1399	6.4	-6%	1	1.0
